# Vaccinia Venus – vaccinia inhibition (Venus reporter) | AID 720580 | 330,000 tested, 0.46% active | Potency, µM (highest dose often 36.5 µM), for inactives: at the top dose activity change, negative = inhibition, most hits filed as inhibitors | Vaccinia virus Venus reporter expression, fluorescence; active means well fitted inhibition curve with a large enough effect; inconclusive means small, poorly fitted or top-dose-only effect; inactive means no such curve, though single readings can be large or run the other way; tested in A549 cells; also: nearly all actives have a fitted effect of over 30% in size; inactives centre near -10
# Vaccinia mCherry – inhibitors of vaccinia virus infection (mCherry reporter signal). AID 720579. Potency, µM (highest dose often 36.5 µM), without a hit: top-dose activity change, negative = inhibition, actives largely listed as inhibitors. Vaccinia virus mCherry reporter infection, fluorescence; about a quarter of the inactives have no number. 310,000 tested, 0.63% active; active = well fitted inhibition curve with a large enough effect; inconclusive = small, poorly fitted or top-dose-only effect; inactive = no such curve, though single readings can be large or run the other way; tested in A549 cells; also: nearly all actives have a fitted effect of over 35% in size; inactives centre near -10
# The depositor's hits bear a star; i = inactive; ? = inconclusive; . = not tested or not shown; [ ] = another dose, or the depositor's remark. % is scaled to controls: 0 for no effect and ±100 for the full control effect; potency is read from the fitted curve at half-maximal effect.
SMILES,Vaccinia Venus,Vaccinia mCherry
CCCCCn1c(C(Cc2ccccc2)NC(C)=O)nc2ccccc21 (configuration not stated),0%,10%
Cc1ccc(NS(=O)(=O)c2coc(C(N)=O)c2)cc1F,-5%,-15%
NC(=O)CSc1nnc(COc2ccccc2)n1C1CCCCC1,-7%,-13%
OCCCNc1cc(-c2ccnc(Nc3cccc(Cl)c3)n2)ccn1,1µM*,?
COc1cc(-c2nnc(SCC(=O)O)n2-c2ccccc2)cc(OC)c1OC,-1%,i
COc1cc(C(CC(=O)N2CCN(c3ccccc3)CC2)c2c(OC)cc(OC)c3ccc(=O)oc23)cc(OC)c1OC (configuration not stated),-22%,5%
CC1CC(C)CN(CCCCOc2ccc([N+](=O)[O-])cc2)C1 (configuration not stated),-12%,i
CC(=O)Nc1ccc(NCc2ccc(C)s2)cc1,-11%,i
COCCCNC(=O)CN(c1cc([N+](=O)[O-])ccc1OC)S(C)(=O)=O,1%,0%
CCCCn1nnnc1C(c1ccccc1)N1CCN(c2c(Cl)cncc2Cl)CC1 (configuration not stated),2%,14%
Cc1ccc(C2=NC(c3ccccc3)=Nc3ccc(Cl)cc3N2)cc1,-2%,1%
CC1(C)N([O-])C2=C(CCCC2)[N+]1=O,-3%,-4%
Cc1cccc(NC(=O)c2cc3c(=O)n4ccccc4nc3n(CC(C)C)c2=N)c1,-15%,-23%
CCC1NC(=O)c2ccccc2N1c1cccc(Cl)c1 (configuration not stated),-18%,-21%
O=C(NC1CC2CCCC(C1)N2Cc1ccccc1)c1cccc(Cl)c1 (configuration not stated),-5%,-14%
CC(C)=CCNc1ncnc2c1c(C#N)cn2C1OC(CO)C(O)C1O (configuration not stated),-26%,-17%
COc1ccc(NC(=O)CSCC(=O)Nc2ccccc2N2CCCCC2)cc1,-13%,-28%
O=C(/C=C/c1ccco1)NC(=S)Nc1cc(C(F)(F)F)ccc1N1CCOCC1,6%,i
CCN(CC)C(=O)C1=C(C)Nc2nnnn2C1c1cccnc1 (configuration not stated),-18%,.
COc1ccc(N2CCN(C(c3ccc4ncccc4c3)c3nnnn3C(C)C)CC2)cc1 (configuration not stated),-8%[7.34 µM],-12%[7.34 µM]
Cc1ccc(CNC(=O)c2ccc3nc(N4CCCCC4)sc3c2)cc1,-8%,-9%
N#Cc1ccc(OCC(=O)OCC(=O)N2CCc3ccccc32)cc1,-7%,i
Cc1ccc2c(=O)c(C(=O)c3ccc(Cl)cc3)cn(CC(=O)Nc3ccc4c(c3)OCCO4)c2n1,-6%,-2%
O=C(Cn1cc(SCc2ccc(F)cc2)c2ccccc21)N1CCCC1,-14%,-11%
CCOC(=O)C(NC(=O)NCc1cccc(C(F)(F)F)c1)(OCC)C(F)(F)F (configuration not stated),-11%,-26%
SMILES,Vaccinia Venus,Vaccinia mCherry
COc1cc(NC(=O)c2ccc(N3CCCC3=O)cc2)cc(OC)c1,-18%,-9%
O=C(CCSCc1ccccc1Cl)NCc1ccc(F)cc1Cl,-2%,-5%
O=S(=O)(c1ccc(Br)cc1)N1CCN=C1SCc1cccnc1,-15%,-10%
COc1ccccc1C(N)=S,-1%,-5%
CN(C)C(=O)Oc1ccc(OCc2cccc[n+]2C)cc1,-6%,-14%
CN(Cc1ccccc1)C(=C(Cl)Cl)/C(=C1/NCCN1Cc1ccc(Cl)nc1)[N+](=O)[O-],?,?
Cc1ccc2c(c1)C(c1ccccc1)N(C(=O)c1ccc(Br)cc1)CC(=O)N2 (configuration not stated),10%,-1%
Cc1cc(C)c(S(=O)(=O)N2CCN(c3ccccn3)CC2)c(C)c1,0%,-12%
CC(=O)c1c(OCC(=O)N(C)C2CCCCC2)ccc2c(C)cc(=O)oc12,-17%,-6%
Cc1c(C(=O)NCC2CCCO2)cccc1[N+](=O)[O-] (configuration not stated),0%,-11%
CCN1CCN(CCC2Oc3cc([N+](=O)[O-])ccc3NC2=O)CC1 (configuration not stated),-4%,-7%
COC1CCCCC1NS(=O)(=O)c1ccccc1 (configuration not stated),-7%,.
COC(=O)C1=C(c2ccccc2OCc2ccccc2)C[C@@H]2CC[C@H]1N2C(=O)NCc1ccc(OC)c(OC)c1,-21%,i
CC(NC(=O)Cc1ccccc1)C(=O)O (configuration not stated),-5%,-21%
CCOC(=O)c1sc(=NC(=O)/C=C/c2ccccc2)n(C)c1C,-5%,-12%
CN(C)[C@@H]1C(=O)C(C(N)=O)=C(O)[C@@]2(O)C(=O)C3=C(O)c4c(O)ccc(Cl)c4[C@@](C)(O)[C@H]3C[C@@H]12,?,?
c1ccc(Cc2nnc3sc(-c4ccc5c(c4)OCCO5)nn23)cc1,12%,-3%
COC(=O)C1CN(S(=O)(=O)c2ccc(C)cc2)CCN1S(=O)(=O)c1ccc(C)cc1 (configuration not stated),-21%,.
CCOc1ccc(-n2c(N)c(C(=O)NCC3CCCO3)sc2=S)cc1 (configuration not stated),-9%,-4%
Cc1ccccc1C(=O)Nc1ccc(S(=O)(=O)N2CCOCC2)cc1,-4%,-3%
O=C(c1cnn(C(=O)c2cccc(S(=O)(=O)N3CCOCC3)c2)c1)c1ccccc1O,6%,i
CC(C)(CNc1ccc([N+](=O)[O-])cc1Cl)N1CCOCC1,18%,-13%
CC1(C(=O)NCc2ccc(Cl)cc2)CCN1C(=O)Cc1cccs1 (configuration not stated),-8%,-16%
COc1ccc(-c2ccc3c(c2)C2CC3CCN2)cc1 (configuration not stated),-10%,-20%
Cc1ccc(-n2ncc3c(N4CCCCCC4)ncnc32)cc1Cl,5%,-4%
SMILES,Vaccinia Venus,Vaccinia mCherry
CC(=O)CCc1ccccc1,-5%,-3%
CNC(=O)NC(=O)C(C)N1CCN(C/C=C/c2ccccc2)CC1 (configuration not stated),-7%,-7%
Cc1ccc(NC(=O)C(=O)NCC(c2cccnc2)N2CCN(C)CC2)cc1 (configuration not stated),-8%,-4%
Cc1sc2ncnc(N3CCC(C(=O)N(C)CC(=O)Nc4ccc(Cl)c(C(F)(F)F)c4)CC3)c2c1C,?,10µM*
CS(=O)(=O)Cc1cccc(C(=O)NN(c2ccccc2)c2ccccc2)c1,-8%,-11%
O=C1NCCOC(=O)[C@@H](Cc2ccc(F)cc2)C/C=C\C[C@@H]1CC(=O)N(CCO)Cc1ccccc1,-29%,i
Cc1c(O)ccc(-c2[nH]ncc2-c2nc3ccccc3s2)c1O,-29%,.
COC(=O)[C@@]1(Cc2ccc(F)cc2)[C@H]2c3cc(C(=O)N4CCCC4)n(CCSCCO)c3C[C@H]2CN1C(=O)c1ccccc1,-14%,-7%
O=C(COc1ncnc2ccc(Br)cc12)NCc1ccco1,-16%,i
CCOC(=O)C1=C(COC(=O)Cc2ccccc2[N+](=O)[O-])NC(=O)NC1C (configuration not stated),-10%,i
CC1CCCCC1NCC(=O)Nc1ccccc1-c1ccccc1 (configuration not stated),-22%,-2%
CCSc1nn(CC(=O)Nc2cccc(Cl)c2)c(N)c1S(=O)(=O)c1ccc(OC)cc1,-14%,-25%
Clc1ccc(-c2nnc(-c3cccc4ccccc34)o2)cc1,4%,-27%
COc1ccc2oc(=O)c(C(C)=O)cc2c1,-4%,-12%
NNC(=O)CCc1nc2ccc(O)cc2[nH]1,-13%,-4%
C[C@H](NC(=O)c1nc[nH]c1C(=O)N[C@@H](Cc1ccccc1)C(=O)OCc1ccccc1)c1ccccc1,-8%,i
O=C1OC(Nc2nc(-c3ccc(F)cc3)cs2)c2ccccc21 (configuration not stated),?,?
CCOc1ccc(NC(=O)CSc2nncn2C)cc1,-1%,-10%
Cc1cc(S(=O)(=O)N2CCN=C2c2ccccc2)c(C)cc1Cl,-14%,i
Cc1ccc(S(=O)(=O)N(C)C)cc1NC(=O)C(C)[N+]12CCN(CC1)CC2 (configuration not stated),-7%,i
O=C(NCc1ccccc1Cl)c1ccc2nnsc2c1,1%,-5%
O=C(N1CCN(c2cccc(Cl)c2)CC1)C1(c2cccs2)CCOCC1,-23%,-18%
Cc1nc2ccc(NC(=O)c3ccc(Br)o3)cc2s1,-21%,-19%
CCOC(=O)C1(C)CCN1C(=O)c1ccc(Cl)cc1Cl (configuration not stated),1%,-7%
CCc1nc2n(n1)C(O)c1cc([N+](=O)[O-])ccc1S2 (configuration not stated),-14%,-13%

# Part of the list above in order of SMILES length, smallest number first.
SMILES,Vaccinia Venus,Vaccinia mCherry
CC(=O)CCc1ccccc1,-5%,-3%
NNC(=O)CCc1nc2ccc(O)cc2[nH]1,-13%,-4%
CCOc1ccc(NC(=O)CSc2nncn2C)cc1,-1%,-10%
O=C(NCc1ccccc1Cl)c1ccc2nnsc2c1,1%,-5%
Cc1nc2ccc(NC(=O)c3ccc(Br)o3)cc2s1,-21%,-19%
O=C(COc1ncnc2ccc(Br)cc12)NCc1ccco1,-16%,i
CCOC(=O)C1(C)CCN1C(=O)c1ccc(Cl)cc1Cl (configuration not stated),1%,-7%
Clc1ccc(-c2nnc(-c3cccc4ccccc34)o2)cc1,4%,-27%
O=C1OC(Nc2nc(-c3ccc(F)cc3)cs2)c2ccccc21 (configuration not stated),?,?
Cc1c(O)ccc(-c2[nH]ncc2-c2nc3ccccc3s2)c1O,-29%,.
CNC(=O)NC(=O)C(C)N1CCN(C/C=C/c2ccccc2)CC1 (configuration not stated),-7%,-7%
O=C(N1CCN(c2cccc(Cl)c2)CC1)C1(c2cccs2)CCOCC1,-23%,-18%
Cc1ccc(NC(=O)C(=O)NCC(c2cccnc2)N2CCN(C)CC2)cc1 (configuration not stated),-8%,-4%
CCOC(=O)C1=C(COC(=O)Cc2ccccc2[N+](=O)[O-])NC(=O)NC1C (configuration not stated),-10%,i
CCSc1nn(CC(=O)Nc2cccc(Cl)c2)c(N)c1S(=O)(=O)c1ccc(OC)cc1,-14%,-25%
Cc1sc2ncnc(N3CCC(C(=O)N(C)CC(=O)Nc4ccc(Cl)c(C(F)(F)F)c4)CC3)c2c1C,?,10µM*
O=C1NCCOC(=O)[C@@H](Cc2ccc(F)cc2)C/C=C\C[C@@H]1CC(=O)N(CCO)Cc1ccccc1,-29%,i
C[C@H](NC(=O)c1nc[nH]c1C(=O)N[C@@H](Cc1ccccc1)C(=O)OCc1ccccc1)c1ccccc1,-8%,i
COC(=O)[C@@]1(Cc2ccc(F)cc2)[C@H]2c3cc(C(=O)N4CCCC4)n(CCSCCO)c3C[C@H]2CN1C(=O)c1ccccc1,-14%,-7%

# The listing continues:
SMILES,Vaccinia Venus,Vaccinia mCherry
CCN(CC(=O)N1CCN(c2ccccc2)CC1)S(=O)(=O)c1ccc(C)cc1,-10%,-27%
c1cn(CCCNC2CCCCCCC2)cn1,-17%,-14%
Cc1nn(C)c(C)c1/C=N/N=C1\CCC2C3CCc4cc(O)ccc4C3CCC12C (configuration not stated),2%,.
Cc1nnc2n(Cc3ccccc3)c(=O)c3c4c(sc3n12)COC(C(C)C)C4 (configuration not stated),-17%,.
CCOC(=O)c1ccc(NC(=O)c2csc3c2CCCCC3)cc1,0%,-6%
CC1(C)Cc2c(C#N)c(SCc3nc4ccccc4[nH]3)nc(N3CCOCC3)c2CO1,-18%,-3%
CCOc1ccc(CCNC(=O)NCc2noc3ccc(C)cc23)cc1,-17%,-10%
COc1cccc(C2=CC(c3ccccc3F)n3c(nc4ccccc43)N2)c1 (configuration not stated),19%,-8%
CCOC(=O)C1(C)CCCN1C(=O)c1ccc(F)c(Cl)c1 (configuration not stated),-7%,i
CN(C)c1ccc(/C=C/c2cc[n+]([O-])c3ccccc23)cc1,-7%,32%[activator]
Cc1ccc(NC(=O)N2CCC(NC(=O)c3ccco3)CC2)cc1,0%,i
CCOC(=O)Nc1ccc2c(COC(=O)CN(C)S(=O)(=O)c3ccc(C)cc3)cc(=O)oc2c1,-5%,-13%
Cc1ccccc1Sc1ncnc2onc(C)c12,-13%,.
CCCCN(C(=O)c1ccccc1F)c1c(N)n(CCC)c(=O)[nH]c1=O,-11%,i
CC(=O)NC1C(OCc2ccccc2)OC(COC(C)=O)C(OC(C)=O)C1OC(C)=O (configuration not stated),-6%,-15%
Cc1ccc(C)c(-n2c(CNC(=O)c3ccco3)nnc2SCC(=O)Nc2nnc(C)s2)c1,6%,-13%
COc1cc(-c2nnn(CC(=O)Nc3ccc(OC(F)(F)F)cc3)n2)cc(OC)c1OC,-14%,-15%
CCC(C)NC(=O)Cn1c(-c2ccccc2)cc(C(C)=O)c1C (configuration not stated),-1%,3%
CCN(CC)C(=O)CN1C(=O)c2cccc3cccc(c23)C1=O,4%,-2%
CNC(=O)c1c(C)noc1C,3%,1%
Cc1ccc(NC(=O)C2CCCN(S(=O)(=O)c3cnc[nH]3)C2)c(Br)c1 (configuration not stated),-7%,i
COC(=O)CSc1n[nH]c(=S)s1,3%,i
COC(=O)c1ccc(C[n+]2ccccc2)cc1,-10%,-10%
CC(=O)N1CN2CN(C1)CN(C(C)=O)C2,1%,-11%
CC(NCc1nc2ccccc2n1C)C12CC3CC(CC(C3)C1)C2 (configuration not stated),-24%,-13%
Cc1cccc(Oc2coc3cc(OC(=O)c4cncc(Br)c4)ccc3c2=O)c1,-4%,-13%
O=C(OCC(=O)c1c[nH]c2ccccc12)c1ccco1,-6%,.
c1ccc(Cn2c(CNc3nc4ccccc4n3CCN3CCCCC3)nc3ccccc32)cc1,-25%,.
COc1ccc(/C=c2\s/c(=C/C(=O)c3ccc(C)cc3)[nH]c2=O)cc1OC,-1%,-17%
CCNCCNc1ccc([N+](=O)[O-])c2cccnc12,8%,i

# Screening results (PubChem BioAssay)
